# Assay outcomes as filed in PubChem.
# nsP2pro inh = blocks chikungunya virus nsP2 protease peptide cleavage; Q8JUX6; FRET peptide cleavage, nsP2pro, fluorescence 1 h; Potency, µM (highest dose often 24.9 µM), for the others: at the top dose activity change, negative = inhibition, actives largely listed as inhibitors; 31,000 compounds, 1.1% hits; AID 1964107; active means well fitted inhibition curve with a large enough effect; inconclusive means small, poorly fitted or top-dose-only effect; inactive means no such curve, though single readings can be large or run the other way; note: nearly all actives have a fitted effect of over 60% in size; a reference inhibitor and vehicle were the controls
# Active calls of the source: *; i = inactive; ? = inconclusive; [ ] = dose if it differs, or a comment. % is set by controls: 0 for no effect and ±100 for the full control effect; potency is the fitted concentration of half-maximal effect.
# Sample of the layout, 20 compounds:
entry	molecule	nsP2pro inh
1	Cc1cc(F)ccc1-c1[nH]nc2ncc(-c3ccnn3C)nc12	-16%[39.2 µM]
2	Cc1ccc(S(=O)(=O)Nc2cccc3ccc[n+](C)c23)cc1	-7%
3	CCOC(=O)C1=C(CN2CCCCC2)NC(=O)NC1c1cc(C)ccc1C (stereo not drawn)	-18%
4	CCc1ccc2c(c1)c(=O)c(S(=O)(=O)c1ccc(F)cc1)cn2CC(=O)Nc1ccccc1OC	-16%
5	O=C([C@H](O)c1ccccc1)N1CCc2onc(-c3cccc4ccccc34)c2C1	i
6	CCn1cc(CNc2ccc(-c3ccccc3OC)nn2)cn1	3%
7	COc1cccc2nc(-c3cccs3)nc(NN3C(=O)C=C(C)C3=O)c12	106%[activator]
8	COc1cccc(OC)c1C1=Nn2c(nnc2-c2ccccc2C)SC1	-5%
9	CCOc1c(CN(C)C(=O)Cn2cccc(OC)c2=O)cccc1OC	?
10	C[C@@H](c1ncncc1F)[C@](O)(Cn1cncn1)c1ccc(F)cc1F	-9%
11	O=C(Cc1ccccc1Cl)N1CC(CO)C2(CCNCC2)C1 (stereo not drawn)	7%
12	COc1c(F)cccc1C(=O)N1CCc2onc(-c3ccccc3F)c2C1	4%
13	COc1ccc(C)cc1NC(=O)C1CCN(S(=O)(=O)c2ccc3[nH]c4c(c3c2)CCCCC4)CC1	-24%
14	COc1ccc(-c2noc(Cn3c(=O)c4ccccc4n(CC(=O)Nc4cccc(C(F)(F)F)c4)c3=O)n2)cc1	-28%
15	CC(C)Oc1ccc(-c2c[nH]cc2CN(C)CCN)cc1	60%[activator]
16	c1ccc(-c2cc(CC3(NCC4CC4)COC3)no2)nc1	-3%[39.2 µM]
17	OC[C@H]1O[C@@H](Oc2ccccc2)[C@H](O)[C@@H](O)[C@@H]1O	5%
18	Cc1sc(-c2cc3ccccc3oc2=O)nc1-c1ccc(Cl)cc1	-19%
19	CNC1(C)C2CCC(C2)C1(C)C (stereo not drawn)	-4%
20	COc1ccc(-c2ccc3nc(-c4cccc(Cl)c4)oc3c2)c(OC)c1OC	?

# Results (from the top)
entry	molecule	nsP2pro inh
1	Cc1cc(F)ccc1-c1[nH]nc2ncc(-c3ccnn3C)nc12	-16%[39.2 µM]
2	Cc1ccc(S(=O)(=O)Nc2cccc3ccc[n+](C)c23)cc1	-7%
3	CCOC(=O)C1=C(CN2CCCCC2)NC(=O)NC1c1cc(C)ccc1C (stereo not drawn)	-18%
4	CCc1ccc2c(c1)c(=O)c(S(=O)(=O)c1ccc(F)cc1)cn2CC(=O)Nc1ccccc1OC	-16%
5	O=C([C@H](O)c1ccccc1)N1CCc2onc(-c3cccc4ccccc34)c2C1	i
6	CCn1cc(CNc2ccc(-c3ccccc3OC)nn2)cn1	3%
7	COc1cccc2nc(-c3cccs3)nc(NN3C(=O)C=C(C)C3=O)c12	106%[activator]
8	COc1cccc(OC)c1C1=Nn2c(nnc2-c2ccccc2C)SC1	-5%
9	CCOc1c(CN(C)C(=O)Cn2cccc(OC)c2=O)cccc1OC	?
10	C[C@@H](c1ncncc1F)[C@](O)(Cn1cncn1)c1ccc(F)cc1F	-9%
11	O=C(Cc1ccccc1Cl)N1CC(CO)C2(CCNCC2)C1 (stereo not drawn)	7%
12	COc1c(F)cccc1C(=O)N1CCc2onc(-c3ccccc3F)c2C1	4%
13	COc1ccc(C)cc1NC(=O)C1CCN(S(=O)(=O)c2ccc3[nH]c4c(c3c2)CCCCC4)CC1	-24%
14	COc1ccc(-c2noc(Cn3c(=O)c4ccccc4n(CC(=O)Nc4cccc(C(F)(F)F)c4)c3=O)n2)cc1	-28%
15	CC(C)Oc1ccc(-c2c[nH]cc2CN(C)CCN)cc1	60%[activator]
16	c1ccc(-c2cc(CC3(NCC4CC4)COC3)no2)nc1	-3%[39.2 µM]
17	OC[C@H]1O[C@@H](Oc2ccccc2)[C@H](O)[C@@H](O)[C@@H]1O	5%
18	Cc1sc(-c2cc3ccccc3oc2=O)nc1-c1ccc(Cl)cc1	-19%
19	CNC1(C)C2CCC(C2)C1(C)C (stereo not drawn)	-4%
20	COc1ccc(-c2ccc3nc(-c4cccc(Cl)c4)oc3c2)c(OC)c1OC	?
21	Cc1ccc(C(=O)N2CC(CN3C(=O)c4c(c(C)nn4-c4ccccc4)C3C3CC3)C2)cc1 (stereo not drawn)	2%
22	Cc1nn(-c2ccc3nncn3n2)c(C)c1CCC(=O)Nc1ccc(OC(F)(F)F)cc1	-13%
23	OC1(CN2CCCCC2)CCN(Cc2ccc(C(F)(F)F)cc2F)C1 (stereo not drawn)	i
24	COCCC(=O)N1CCC2(CCC2NC(=O)COC)CC1 (stereo not drawn)	i
25	C=C1C[C@]23C[C@H]1CC[C@H]2[C@]1(C)CCC[C@@](C)(C(=O)O)[C@H]1[C@@H]3C(=O)O	?
26	COc1ccc(N2CCN(C(c3ccccc3)c3nnc(-c4ccccc4Cl)o3)CC2)cc1 (stereo not drawn)	?
27	Cc1ccc(CNC(=O)c2nc(S(=O)(=O)Cc3ccc(C)cc3)ncc2Cl)cc1	15%
28	COc1ccc2nc(SCC(=O)c3c(C)[nH]c4ccccc34)nc(C)c2c1	-12%
29	Cc1ccc(S(=O)(=O)Nc2ccccc2C(=O)Nc2nc(-c3ccccc3)co2)cc1	i
30	CN1CCOC[C@H]2CCN(C(=O)c3cccc4[nH]ccc34)C[C@H]21	-34%
31	O=C(c1ccc(C(F)(F)F)cc1)N1CCCC(C(=O)N2CCC(c3nc4ccncc4[nH]3)CC2)C1 (stereo not drawn)	-7%
32	Cc1cc(C)c2[nH]c(C(=O)N(C)Cc3ccccc3-n3cccn3)c(C)c2c1	2%
33	COc1ccc(-c2nc3ccncc3[nH]2)cc1	1%[39.2 µM]
34	CCOc1ccc(C2CC(c3c(O)n(C4CCCCC4)c(=O)[nH]c3=O)=Nc3ccccc3S2)cc1 (stereo not drawn)	?
35	CCOCCN1C(=O)COC[C@@H]1[C@H](O)c1ccc(NC(=O)c2cccc(C#N)c2)cc1	0%[39.2 µM]
36	N#Cc1nc(Nc2cc(F)cc(F)c2)c2ncn(CCO)c2n1	5%
37	OCCN1CCN(c2ccc(-c3nc(-c4cccc(C(F)(F)F)c4)no3)cn2)CC1	i
38	CC1=CC(=O)[C@H]2C(C)(C)CCC[C@]2(C)[C@@]1(O)CO	3%
39	N#Cc1cccc(C(=O)Nc2cc(-c3ccccc3)nn2-c2ccccc2)c1	5%
40	Cc1ccc2c(C)c(C(=O)N3CCC(c4nc5ccccc5s4)CC3)oc2c1C	-22%
41	CC(CCc1ccccc1)NC(C)C(O)c1ccc(O)cc1 (stereo not drawn)	22%
42	COc1ccc(C2=Nn3c(nnc3-c3cccc(OC)c3OC)SC2)cc1	-5%
43	CCOCC(=O)N1C[C@@H](CO)[C@H](c2ccccn2)C1	-1%
44	CCOc1ccccc1NC(=O)C1=C(C)Nc2ncnn2C1c1ccccn1 (stereo not drawn)	-19%
45	CC1(C(=O)O)CCCC2(C)C3=CCC4CC3(CCC12)CC4CO (stereo not drawn)	8%
46	COC(=O)c1ccccc1NC(=O)C1=C(C)C(=O)OC12CCCCCC2	-16%
47	CCC(C)NC(=O)Cn1nc2n(c1=O)CCCCC2 (stereo not drawn)	-12%
48	COc1ccc(NC(=O)COc2ccc(NC(=O)C3CC3)cn2)cc1	-5%
49	COc1cccc(CCC(=O)N2CCC(n3cc(-c4nc(-c5ccccc5)no4)nn3)C2)c1 (stereo not drawn)	-5%
50	O=[S+]([O-])(C1CC1)N1C2CCC1CN(Cc1cccnc1)C2	-6%
51	COCC(=O)N[C@@H]1CN(C(=O)Cc2cccc(OC)c2)CC[C@@H]1c1nc(C)no1	i
52	N#Cc1nc(-c2cccc3ccccc23)oc1NC1COC1	-15%
53	CN1c2cccnc2CN(C(=O)Nc2cccc(C(F)(F)F)c2)CC[C@H]1CO	?
54	Cc1ccc(O)c([C@H](CCN(C(C)C)C(C)C)c2ccccc2)c1	20%
55	COc1ccccc1C(=O)NC(=O)Nc1ccc(-n2nc(C(F)(F)F)cc2C(F)(F)F)cc1	30%[activator]
56	O=c1n(Cc2ccccc2Cl)c2ccccc2c2nc(-c3ccccc3)nn12	-19%

# (next part)
entry	molecule	nsP2pro inh
57	COc1cccc(CNC(=O)[C@@H]2C[C@@H](O)CN2C2CCN(C(=O)c3ccc4ccccc4n3)CC2)c1	-6%
58	C/C=C(\C)C(=O)OC1C(C)C2(O)C3C=C(C)C(=O)C3CC(CO)=CC2C2C(C)(C)C12OC(C)=O (stereo not drawn)	-12%[10 µM]
59	Cc1nn(-c2ccccn2)c(C)c1[C@@H]1C=C[C@@H](NC(=O)NCc2ccccc2)C1	?
60	Cc1noc(-c2cccs2)c1C(=O)NCc1ccco1	?
61	COc1cc([C@H]2O[C@H](c3cc(OC)c4c(c3)OCO4)[C@H](C)[C@H]2C)cc(OC)c1OC	-17%[10 µM]
62	Cn1nc(C2CCCCC2)cc1[C@H]1CN2CC[C@H]1C[C@@H]2CNC(=O)NCc1ccccc1	i
63	C/C=C1\[C@H](O[C@@H]2O[C@H](CO)[C@@H](O)[C@H](O)[C@H]2O)OC=C(C(=O)OCCc2ccc(O)cc2)[C@H]1CC(=O)OCCc1ccc(O)cc1	17%[10 µM]
64	[O-][n+]1onc(-c2ccccc2)c1/C=N/O	3%
65	CCc1ccc(C(=O)Nc2cc(CN3CCN(C)CC3)cc(C(F)(F)F)c2)cc1C#Cc1cnc2ccnn2c1	22%
66	CC(C)(C)OC(=O)N1CCC(c2nnc(SCc3ccccc3)o2)CC1	-24%
67	COc1cc2c(c(OC)c1OC)-c1c(cc3c(c1OC)OCO3)C[C@@H](C)[C@@H](C)C2	-16%
68	CC(=O)OC(C)(C)CCC(=O)[C@](C)(O)C1[C@H](O)C[C@@]2(C)C3CC=C4C(C[C@H](O)[C@@H](O)C4(C)C)[C@]3(C)C(=O)C[C@]12C (stereo partly drawn)	9%
69	CCCNC(=O)N[C@@H]1CCC[C@@H](C(=O)NCc2cc(C)on2)CC(=O)N(C)C1	28%[39.2 µM]

# Copied from above: nos. 68–69
entry	molecule	nsP2pro inh
68	CC(=O)OC(C)(C)CCC(=O)[C@](C)(O)C1[C@H](O)C[C@@]2(C)C3CC=C4C(C[C@H](O)[C@@H](O)C4(C)C)[C@]3(C)C(=O)C[C@]12C (stereo partly drawn)	9%
69	CCCNC(=O)N[C@@H]1CCC[C@@H](C(=O)NCc2cc(C)on2)CC(=O)N(C)C1	28%[39.2 µM]

# Some of the compounds tested; the hit share may differ from the screen's.
